miR-21 FLuc – qHTS Assay for Modulators of miRNAs and/orActivators of miR-21; HeLa miR-21 FLuc reporter, luciferase, 48 h; Potency, µM (titrated, usually from 38.3 µM), without a hit: top-dose reporter change, positive = more light; 340,000 tested, under 10 active; active = well fitted rising curve with a large enough effect; inconclusive = small, poorly fitted or top-dose-only effect; inactive = no such curve, though single readings can be large or run the other way;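 also: % of control where 0% means no effect; miR-21 action dims this reporter so a rising signal means less miR-21 action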
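Using DMEM plus 10% FBS, HeLa miR-21-FLuc cells are incubated with test compounds (final up to about 40uM) for 48 hours; firefly luciferase signal is then imaged following reagent-mediated lysis.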
Rango release inh – qHTS Assay for Inhibitors of RanGTP induced Rango (Ran-regulated importin-beta cargo) - Importin beta complex dissociation. Biochemical FRET Rango-importin beta, RanGTP-induced dissociation. 340,000 tested, 0.071% active. Potency, µM (titrated, usually from 46.1 µM), for inactives: at the top dose activity change, negative = inhibition; active means falling FRET ratio curve, often poorly fitted, with flat reads before Ran was added; inconclusive means other falling curves, or compound fluorescence or quenching; inactive means flat or rising ratio curve;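 also: potency is read from the fitted curve at half-maximal effect; % of control where 0% means no effect; nearly all actives have a fitted effect of over 45% in size; -100% = wells without RanGTP and RCC1; the record marks most hits as doubtful in a second field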
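Two FRET readings bracket the reaction: one 5 min after compound meets Rango–importin beta, another 45 min after RanGTP-RCC1 (0.6 uM Ran, 0.2 uM RCC1, 2 mM GTP) is added. Only the second defines inhibition.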
GLA inh pH 4.5 – qHTS Assay for Inhibitors of Human alpha-Galactosidase at pH 4.5. purified enzyme, 4-MU-alpha-Gal fluorescence, pH 4.5. AID 1467, 2008. 230,000 tested, under 10 active. Alpha-galactosidase A (Homo sapiens), P06280. activity change, negative = inhibition, % at 105 µM; inconclusive = small, poorly fitted or top-dose-only inhibition, or a rising curve; inactive = flat fitted curve, though single readings scatter; no compound was filed as active;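 also: 0% = full activity with enzyme and -100% = basal without enzyme; dose as in the result columns while the protocol names 77 µM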
Rango-impB inh – qHTS Assay for Inhibitors of Rango (Ran-regulated importin-beta cargo) - Importin beta complex formation; Potency, µM (highest dose often 92.2 µM), without a hit: at the highest dose inhibition of complex formation; Rango CFP/YFP FRET sensor + importin beta, 45 min; Importin subunit beta-1 (Homo sapiens), Q14974; 340,000 tested, 0.031% active; AID 540263, 2011; active = rising FRET ratio curve, often small or poorly fitted; inconclusive = mostly compound fluorescence or quenching in the first reads; inactive = flat curves in all reads;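 also: potency is read from the fitted curve at half-maximal effect; 0% = DMSO wells and 100% = buffer wells lacking importin beta; nearly all actives have a fitted effect of over 15% in size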
Target sequence (Q14974 whole entry, looked up): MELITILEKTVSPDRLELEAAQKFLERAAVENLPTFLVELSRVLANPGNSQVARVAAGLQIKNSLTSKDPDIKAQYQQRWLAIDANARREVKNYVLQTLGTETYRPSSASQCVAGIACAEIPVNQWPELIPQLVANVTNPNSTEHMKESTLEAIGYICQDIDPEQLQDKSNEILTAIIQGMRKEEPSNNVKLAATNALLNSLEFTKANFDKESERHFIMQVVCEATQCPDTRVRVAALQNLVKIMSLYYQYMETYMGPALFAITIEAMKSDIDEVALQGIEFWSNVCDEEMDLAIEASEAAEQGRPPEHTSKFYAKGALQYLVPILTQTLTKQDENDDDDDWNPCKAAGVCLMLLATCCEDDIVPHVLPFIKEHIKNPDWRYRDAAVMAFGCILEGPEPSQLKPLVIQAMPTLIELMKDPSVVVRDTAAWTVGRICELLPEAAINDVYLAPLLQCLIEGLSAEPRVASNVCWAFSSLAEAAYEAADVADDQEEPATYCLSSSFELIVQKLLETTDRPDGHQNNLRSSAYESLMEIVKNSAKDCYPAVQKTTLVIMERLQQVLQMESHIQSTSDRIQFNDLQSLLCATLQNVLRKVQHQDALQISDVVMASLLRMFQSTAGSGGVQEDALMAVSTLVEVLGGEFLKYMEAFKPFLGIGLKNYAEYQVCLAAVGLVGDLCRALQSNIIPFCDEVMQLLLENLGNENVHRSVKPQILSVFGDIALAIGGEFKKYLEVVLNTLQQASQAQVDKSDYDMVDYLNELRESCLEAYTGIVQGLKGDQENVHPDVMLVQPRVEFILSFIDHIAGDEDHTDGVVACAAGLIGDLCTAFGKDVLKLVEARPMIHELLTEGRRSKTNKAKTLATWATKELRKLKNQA
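Inhibition scored from the CFP 486 nm/YFP 530 nm FRET ratio 45 min after adding 0.125 microM importin beta to 50 nM Rango biosensor preincubated 5 min with compound (room temperature, PBS with DTT, Tween-20, BSA). No-importin wells as positive control.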
Numbers without * were called inactive; ? = inconclusive; . = no result given; [ ] = another dose, or the depositor's remark. Some of the compounds tested; count on the stated rates, not on these rows.

SMILES | miR-21 FLuc | Rango release inh | GLA inh pH 4.5 | Rango-impB inh
Cc1ccc2occ(C(=O)c3ccco3)c(=O)c2c1 | -31.8% | -2.8% | . | ?
O=C(N/N=C\c1ccc(Oc2ccccc2)cc1)c1csnn1 | -28.7% | 2.1% | 4.8 | 3.3%
CCCc1cc(N2CCCC(C(=O)Nc3cc(Cl)ccc3OC)C2)n2ncnc2n1 (centres undefined) | . | 10.5% | . | -2.2%
CCOc1ccc(C(=O)NC2CCN(C(=O)Nc3ccccc3OC)CC2)cc1 | 1.0% | -2.3% | -15.9 | 5.9%
COc1ccccc1N1C(=O)C2C3C=CC(C3)C2(C)C1=O (centres undefined) | -0.5% | 10.7% | 1.1 | 2.0%
COc1cccc(Cn2cccc(NC(=O)Nc3cccc(C#N)c3)c2=O)c1 | 20.9% | -21.6% | 11.8 | 0.0%
CC1CCN(S(=O)(=O)c2ccc3c(c2)oc(=O)n3CC(=O)N2CCc3ccccc3C2)CC1 | 0.2% | 0.4% | -4.5 | 1.5%
Cc1ccc(C(=O)N2CCC(Cc3ccccc3)CC2)cc1S(=O)(=O)N1CCOCC1 | . | 1.2% | . | -0.2%
C/C(=N\NC(=O)c1ccc(Cl)cc1)c1cccc(NC(=O)C(C)C)c1 | -16.4% | -3.6% | 5.2 | -2.6%
N=c1c2c(n(Cc3ccc(F)cc3)c3c1CCC3)CCC2 | ? | 4.9% | -0.9 | 3.3%

Whole records, looked up by structure. Order of screens: miR-21 FLuc	Rango release inh	GLA inh pH 4.5	Rango-impB inh
COc1cccc(Cn2cccc(NC(=O)Nc3cccc(C#N)c3)c2=O)c1 is entered as 20.9%	-21.6%	11.8	0.0%
Cc1ccc(C(=O)N2CCC(Cc3ccccc3)CC2)cc1S(=O)(=O)N1CCOCC1 is entered as .	1.2%	.	-0.2%
CCOc1ccc(C(=O)NC2CCN(C(=O)Nc3ccccc3OC)CC2)cc1 is entered as 1.0%	-2.3%	-15.9	5.9%

Carrying on:
SMILES | miR-21 FLuc | Rango release inh | GLA inh pH 4.5 | Rango-impB inh
c1ccc2nc(N3CCOCC3)cnc2c1 | -35.7% | -9.5% | -4.5 | -0.6%
Cc1cc(C)cc(N(C)S(=O)(=O)c2nnc(NC(=O)C(C)C)s2)c1 | -1.3% | 0.3% | . | -1.3%
COc1ccc(C2(C)NC(=O)N(CC(=O)Nc3ccc4c(c3)CCC4)C2=O)cc1OC (centres undefined) | . | -10.3% | . | 3.8%
CCC(=O)Nc1cc(SCCO)cc([N+](=O)[O-])c1 | -5.4% | 6.7% | 0.5 | 2.6%
CCOc1ccc(Oc2ccc(Cl)cc2NC(=O)CCNC(C)=O)cc1 | 3.5% | 26.0% | -2.7 | -3.5%
CCn1nc(C)c(CN2CCN(Cc3ccc(OC)c(C)c3C)C(CCO)C2)c1C (centres undefined) | -0.3% | -6.6% | 0.6 | -2.5%
Cc1c(C(=O)Nc2ccc(S(N)(=O)=O)cc2)oc2ccc(Cl)cc12 | -5.9% | -6.8% | 12.8 | -1.0%
COC(=O)C1=C(C)N(CCc2ccc(OC)c(OC)c2)C(=O)C1 | -1.4% | 2.9% | 6.7 | -3.6%
Cc1cc(C(=O)NC2CCCc3ccccc32)ccc1[N+](=O)[O-] (centres undefined) | -9.2% | -10.1% | . | -0.3%
COc1ccc(CC(=O)NCC2CCCN(Cc3ccccc3OC)C2)cc1 (centres undefined) | -0.4% | 2.3% | . | 1.5%
CC(C)N1C(=O)CCC1C(=O)NC1CCCC1 (centres undefined) | -0.9% | 6.1% | -12.0 | 0.1%
COc1cc(O)c(C(CCN2CCN(c3ccccc3)CC2)c2cc(OC)c(OC)c(OC)c2)c(OC)c1 (centres undefined) | 10.7% | -5.5% | -5.2 | 0.1%
O=C(NCc1ccccc1)C(c1ccccc1F)N(CC1CCCO1)C(=O)c1ccccn1 (centres undefined) | 1.5% | 2.8% | . | -0.1%
O=C(CN1c2ccccc2Sc2ccccc21)NNC(=O)Nc1cccc(Cl)c1 | ? | 16.3% | 3.6 | 0.5%
CCOC(=O)[C@H]1[C@H]2COc3ccc(Cl)cc3[C@@H]2N2C(=O)CN(Cc3ccc(OC)cc3)C(=O)[C@@]12C | . | 1.4% | . | -2.1%
CC(=O)N/C(=N/c1nc(C)cc(C)n1)Nc1cccc(C)c1C | -6.0% | -2.1% | . | -2.4%
O=C(/C=C\Nc1cccc(F)c1)c1ccc2c(c1)OCO2 | -1.9% | ? | 2.5 | ?
CC(C)(C)c1ccc(CN2C(=O)c3ccccc3S2(=O)=O)cc1 | -49.2% | -5.9% | . | 0.2%
O=c1c2c(-c3cccs3)csc2ncn1/N=C/c1ccc(OC(F)F)cc1 | -6.9% | 16.7% | 1.8 | -4.0%
Nc1ncncc1-c1ccc2ccccc2c1 | -2.9% | 42.5% | 0.3 | 0.9%
COc1cccc(NC(=O)c2cc(-c3ccc(C)o3)nc3ccccc23)c1 | 1.4% | ? | . | ?
CC(=O)N1CCN(S(=O)(=O)c2ccc(F)c(Cl)c2)CC1 | -1.4% | -15.9% | -1.9 | -3.8%
CCCOc1ccccc1/C=C1\SC(N2CCCCC2)=NC1=O | 2.5% | -3.2% | . | -1.3%
Cc1nc(NC(=O)COc2ccc(Cl)cc2)sc1C(=O)N(C)C | -8.4% | . | -1.7 | .
O=C(C1=C(O)C(=O)N(CCN2CCOCC2)C1c1cccc(O)c1)c1cc2ccccc2o1 (centres undefined) | -1.7% | -19.8% | . | -1.3%
COc1cc(C2c3cc4c(cc3OC(Nc3ccc(C(=O)O)cc3)C2C)OCO4)cc(OC)c1OC (centres undefined) | . | 6.3% | . | 0.6%
COc1ccc(-n2nnnc2SCC(=O)Nc2ccc(OC)cc2OC)cc1 | 1.3% | 10.4% | . | -3.7%
CCCCn1c(N)c(N(CCC(C)C)C(=O)c2ccc(COc3ccccc3)o2)c(=O)[nH]c1=O | . | -10.5% | . | 1.8%
Cc1cc(C)[n+](-c2ccc(C(C)C)cc2)c2[nH]c(=O)[nH]c(=O)c12 | -2.8% | -12.4% | ? | 0.0%
O=c1c2ccccc2nc(/C=C/c2cccc([N+](=O)[O-])c2)n1CCCO | . | 13.3% | . | 0.0%
CC1Oc2ccccc2N(CC(=O)NC2CCCCC2)C1=O (centres undefined) | -1.1% | 20.3% | . | 1.6%
CN1C[C@@H]2[C@@H]3C(=O)N(C)C(=O)[C@@H]3[C@](C)(C1=O)N2C(=O)c1ccccc1 | . | 10.0% | . | 0.2%
Cc1ccc2nc(-c3ccc(SCC(=O)Nc4nc(C)cs4)nc3)[nH]c2c1 | -61.5% | -9.7% | -5.6 | -1.2%
O=c1c(-c2nnc(SCc3ccc(Cl)c(Cl)c3)o2)cccn1Cc1ccccc1 | -3.0% | -8.5% | ? | -2.7%
COC(=O)Oc1ccc(/C=N/NC(=O)CN(c2ccccc2Cl)S(C)(=O)=O)cc1OC | -6.0% | -11.4% | -27.2 | 0.1%
Cn1c2ccsc2c2ncn(Cc3ccc(F)cc3)c(=O)c21 | . | -16.6% | . | -1.0%
CCc1ccc(O)c(CNCCNCc2cc(CC)ccc2O)c1 | . | 4.4% | . | 0.1%
Cc1ccc2cc(CN(Cc3ccco3)C(=O)C3CCCCC3)c(=O)[nH]c2c1C | -2.0% | 1.6% | 6.7 | -1.5%
Cc1c(CCO)sc[n+]1CC(=O)OCCC12CC3CC(CC(C3)C1)C2 | -2.8% | 5.3% | 3.1 | -0.9%
COc1ccccc1-n1c(CNc2c(C)cccc2C)nnc1SCC(=O)N1CCOCC1 | -7.3% | -0.1% | -2.4 | -2.7%
COc1ccccc1-c1cc(C(F)(F)F)nc(N2CCCC2)n1 | -3.2% | -10.8% | 0.5 | 3.0%
CCOC(=O)Cc1cc(=O)n2[nH]c(-c3ccccc3)c(-c3ccccc3)c2n1 | 1.5% | -1.1% | -12.6 | -1.6%
OC(CN1CCN(c2cccc(C(F)(F)F)c2)CC1)c1c[nH]c2ccccc12 (centres undefined) | 4.0% | -2.7% | -21.5 | -0.4%
CCN1C(=O)CC(N2CCC(Nc3ccc(F)cc3)CC2)C1=O (centres undefined) | -0.2% | -3.6% | -8.9 | -3.7%
COc1cc(-c2nc(C)c(C(C)=O)n2O)ccc1OCC(=O)Nc1ccc(Cl)cc1 | 8.6% | 0.2% | -1.4 | 0.7%
O=C(COc1ccc(F)cc1)N(Cc1ccco1)C1CCS(=O)(=O)C1 (centres undefined) | 1.8% | 2.4% | . | 3.5%
O=C(CC1C(=O)NCCN1Cc1c(F)cccc1Cl)NC1CCCCCC1 (centres undefined) | 1.0% | -6.4% | 1.1 | 0.9%
O=C(CCNC(=O)c1ccc([N+](=O)[O-])cc1)NCCC1=CCCCC1 | . | -8.9% | . | 6.9%
CC1(C)OC(=O)N(CC(=O)Nc2ccccc2)C1(C)O (centres undefined) | -1.4% | 16.8% | -5.5 | 5.7%
O=C(O)CCCC(=O)Nc1ccc(Oc2cccc(C(F)(F)F)c2)nc1 | -6.1% | 11.4% | -1.2 | -1.7%

(cont.)
SMILES | miR-21 FLuc | Rango release inh | GLA inh pH 4.5 | Rango-impB inh
CCNc1nc(C)cc(COC)c1C#N | -5.0% | 14.3% | 5.2 | -1.7%
CCOc1ccc(C(=O)NCC(=O)N2CCC3CCCCC3C2)cc1OCC (centres undefined) | -3.1% | 0.0% | . | -0.3%
CC(NC(=O)Cn1cc(C(F)(F)F)cc(Cl)c1=O)c1ccccc1 (centres undefined) | -0.3% | 1.4% | . | 4.3%
CCC(=O)N1CCN(c2ccccc2NC(=S)NC(=O)c2cccc([N+](=O)[O-])c2)CC1 | -2.7% | 11.8% | -4.9 | ?
O=C(COC(=O)[C@@H]1CCCN1C(=O)c1cccs1)Nc1cccc(Cl)c1 | . | 1.6% | . | -0.1%
CN1CCN(CC(=O)Nc2cccc(S(=O)(=O)N(C)c3ccccc3)c2)CC1 | . | 0.7% | . | 1.6%
Nc1c(-c2ccc(F)cc2)cnn1C1CCS(=O)(=O)C1 (centres undefined) | -4.0% | -0.9% | 10.1 | -3.1%
CCC1(C)Cc2c(sc3c2c(=O)n(C)c2nnc(SCc4ccc5c(c4)OCO5)n32)CO1 (centres undefined) | -2.4% | 1.0% | 1.1 | 2.3%
CS(=O)(=O)N(CC(=O)N1CCN(c2ccccc2)CC1)Cc1ccc(Cl)cc1 | 9.4% | 22.1% | 3.9 | 0.8%
CCOC(=O)C1(Cc2ccccc2Cl)CCN(C(=O)CN2CCOC2=O)CC1 | -49.2% | -4.6% | -5.7 | 0.1%
CC1CN(S(=O)(=O)c2ccc(C(=O)N(C)C3CCCCC3)cc2)CC(C)O1 (centres undefined) | . | -9.2% | . | 3.4%
Cc1ccc(C(=O)N/C(=C\c2ccco2)C(=O)NCC2CCCO2)cc1C (centres undefined) | 1.1% | -4.4% | -2.2 | -2.3%
CC(C)NC(=O)COc1ccc2c(c1)C(=O)CC(C)(C)O2 | -15.3% | -10.2% | 18.4 | ?
COc1ccc(NC(=O)C2CCCN(S(=O)(=O)c3cccnc3)C2)c(OC)c1 (centres undefined) | -1.2% | 1.6% | -1.0 | -1.9%
CCC(c1nnnn1C(C)(C)CC)N(CCCN1CCOCC1)Cc1cc2cccc(C)c2[nH]c1=O (centres undefined) | 0.1% | -21.6% | 7.0 | ?
O=C(O)c1cc(-c2ccco2)[nH]n1 | -0.3% | 16.9% | 0.8 | -0.1%
CCc1nnc(NC(=O)CN2C(=O)N(C)C3(CCCCC3)C2=O)s1 | . | -18.9% | . | ?
Nc1nnc(SCCCC(=O)c2ccc(F)cc2)s1 | -30.7% | 1.7% | 5.5 | -5.8%
Cc1cc(C)cc(N=C2NC(=O)CS2)c1 | -2.0% | -0.3% | . | -2.4%
CCC(=Cc1ccccc1O)c1ccncc1 | . | 28.0% | . | 2.1%
CCOC(=O)c1sc(NC(=O)CSc2nnc(Cc3ccccc3)o2)c(C#N)c1C | 0.7% | ? | -7.5 | ?
C=CCN(CC=C)c1ccc(N2C(=O)C3CCCCC3C2=O)cc1[N+](=O)[O-] (centres undefined) | 0.2% | -1.3% | 2.7[21.1 µM] | -0.6%
O=c1c2ccccc2nc(-c2cccc(Cl)c2)n1O | -6.3% | -5.3% | 0.6 | -2.6%

Screening data as filed in PubChem.
